# Bioassay records as filed in PubChem.
# GIV-Gai inh – inhibitors of GIV peptide binding to Galpha-i3, primary screen, biochemical, fluorescence polarization, FITC-GIV GBA peptide, rat Galphai3; hit rate 0.42% among 210,000; percent of control (FP), % (no concentration beside the values); 90 min; hits give low values; scaled: aluminum fluoride 0%, vehicle 100%;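 active = replicate mean at 85% of control or lower, very high polarization wells dropped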;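 also: wells of about 15 µL received 100 nL stock; the first replicate is given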
# Target sequence (P08753 whole entry, looked up): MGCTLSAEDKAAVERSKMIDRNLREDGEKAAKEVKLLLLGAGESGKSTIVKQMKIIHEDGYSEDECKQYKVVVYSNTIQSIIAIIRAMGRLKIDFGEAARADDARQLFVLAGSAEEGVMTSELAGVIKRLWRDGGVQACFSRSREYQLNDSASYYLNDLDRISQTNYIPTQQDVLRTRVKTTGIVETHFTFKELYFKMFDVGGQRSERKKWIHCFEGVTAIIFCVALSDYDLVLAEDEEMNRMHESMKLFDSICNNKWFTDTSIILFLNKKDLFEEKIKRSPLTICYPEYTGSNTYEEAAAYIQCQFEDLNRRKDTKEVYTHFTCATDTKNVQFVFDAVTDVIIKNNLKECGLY
# * = called active by the depositor.
# Preview, two compounds:
GIV-Gai inh	compound
105.6	CCOc1ccc(C(=O)N2CCCC(c3nc(-c4cccc(NC(=O)CC)c4)no3)C2)cc1OCC (stereo not drawn)
103.3	COc1ccc2[nH]c(C(=O)N3CCN(C(=O)COc4ccccc4)CC3)cc2c1

# The whole of this part, from the start:
GIV-Gai inh	compound
105.6	CCOc1ccc(C(=O)N2CCCC(c3nc(-c4cccc(NC(=O)CC)c4)no3)C2)cc1OCC (stereo not drawn)
103.3	COc1ccc2[nH]c(C(=O)N3CCN(C(=O)COc4ccccc4)CC3)cc2c1
153.7	CC(C)c1ccc([C@H]2[C@@H]3CCCC=C3C(C#N)=C(N)C2(C#N)C#N)cc1
108.4	Clc1ccc(C2Nc3cccc4cccc(c34)N2)cc1
105.7	Cc1ccsc1CN1CCCC1c1cc(C(C)C)no1 (stereo not drawn)
105.8	COc1ccc(C2C=C(c3ccc(Cl)cc3)Nc3nc4ccccc4n32)cc1OC (stereo not drawn)
110.1	CCOC(=O)CSc1nc2c(sc3ccccc32)c(=O)n1CCc1c[nH]c2ccccc12
106.2	Cc1cc(C)cc(NC(=O)C2CCCN(C(=O)C3Sc4ccccc4NC3=O)C2)c1 (stereo not drawn)
102.5	CCn1nccc1-c1cccc(-c2noc(C(C)Oc3cccc(Cl)c3)n2)c1 (stereo not drawn)
116.1	COc1ccc(C2(CCNCc3ccc(N(C)C)cc3)CCOC(C)(C)C2)cc1 (stereo not drawn)
102.9	COc1ccc(C2CC(=O)Nc3c2ccc2ccccc32)c(OC)c1OC (stereo not drawn)
111.3	COc1cc(C2Nc3ccc4ccccc4c3C3=C2C(=O)CCC3)ccc1OCc1ccccc1 (stereo not drawn)
102.4	N=C1/C(=C/c2ccc(OCc3ccccc3)cc2)C(=O)N=C2SC=C(c3ccccc3)N12
100.5	CNC(=O)C1CCN(c2nc3ncn(CC(=O)NCc4cccs4)c(=O)c3s2)CC1
129.6	Fc1cccc(-c2noc(-c3cc(N4CCSCC4)nc4ccccc34)n2)c1
107.4	O=C(NC1CC1)C1CCc2sc(C(=O)N3CCCC3)cc2C1 (stereo not drawn)
116.3	CCCCCCCCCOc1ccc(C(=O)OC2CCC3(C)C(=CCC4C3CCC3(C)C(C(C)CCCC(C)C)CCC43)C2)cc1 (stereo not drawn)
102.0	COc1ccc(-n2ccc(=O)c(-c3nc(-c4ccc(F)c(Cl)c4)no3)n2)cc1
101.7	CCCc1cc(C2CCCN2C(=O)NCC(=O)OC)no1 (stereo not drawn)
99.5	O=C(CSc1ccccc1)N1CCN(Cc2cc(=O)n3nc(-c4ccc(F)cc4)sc3n2)CC1
103.7	Cc1cc2nc3s/c(=C\c4ccc(OCc5ccccc5F)cc4)c(=O)n3c2cc1C
104.7	Cc1ccc(Cl)cc1NS(=O)(=O)c1cc(-c2nc(C(C)C)cs2)cs1
102.8	Cn1nnc2cc(-c3noc(C4CCCO4)n3)ccc21 (stereo not drawn)
100.8	O=C(Cn1cnc2sc3c(c2c1=O)CCCC3)Nc1cccc(Cl)c1
104.6	CCOC(=O)c1[nH]c(C)c(CCC(=O)Nc2c(C)n(C)n(-c3ccccc3)c2=O)c1C
98.0	O=S(=O)(Nc1cccc(-c2nnc(-c3ccccc3)o2)c1)c1cccc(Cl)c1
110.4	O=C(Nc1ccccc1Cl)C(Cc1ccccc1)N1C(=O)C2C3c4ccccc4C(c4ccccc43)C2C1=O (stereo not drawn)
105.4	O=[N+]([O-])c1ccc(-c2nc(NCc3ccco3)c3ccccc3n2)cc1
103.6	CCOC(=O)c1ccc(-n2c(=S)sc3c2nc(SCC(=O)Nc2cccc(OC)c2)n2c4ccccc4nc32)cc1
112.0	Cc1ccc(-c2noc(Cn3cnc4c(cnn4-c4ccccc4)c3=O)n2)cc1
112.1	CCC(=O)Nc1cnc(N2CCN(c3ccc(Cl)cc3)CC2)c(C(=O)O)c1
106.7	COc1ccc(C(=O)Nc2sc3c(c2-c2nc4ccccc4s2)CCCC3)cc1OC
108.8	COc1ccccc1-n1c(SCC(=O)N2CCCc3ccccc32)nc2c(c1=O)SCC2
103.2	CC(C)c1nc2c(c(C(=O)N3CCCC3c3cccnc3)n1)OCCO2 (stereo not drawn)
101.3	Cc1nc(-c2csc(S(=O)(=O)NCC3CCCO3)c2)sc1C(=O)N1CCCC1 (stereo not drawn)
102.7	Cc1ccc(CN2CCCC2c2c(C)noc2C)c(C)c1 (stereo not drawn)
107.2	CCOC(=O)N1CCN(C(=O)c2c[nH]c3ccc(S(=O)(=O)N(C)c4ccc(Br)cc4)cc3c2=O)CC1
103.5	Cc1cccc(-c2nc3ccccc3c3nnc(SC(C)C(=O)NC4CC4)n23)c1 (stereo not drawn)
100.9	CCc1cc(Sc2ccccc2N)n2ncnc2n1
110.2	CCCCC(CC)Cn1c(-c2nonc2N)nc2ccccc21 (stereo not drawn)
102.1	Cc1nc(C2CCN(Cc3cc(F)ccc3F)CC2)no1
100.9	Cc1cc(N2CCCCC2)n2nc(CN3CCC(N4CCCCC4)CC3)nc2n1
115.5	CCOC(=O)C1=C(C)N=c2s/c(=C/c3c[nH]c4ccccc34)c(=O)n2C1c1ccc(OC)c(OCC)c1 (stereo not drawn)
106.8	c1ccc(C2CC(c3cccs3)n3ncnc3N2)cc1 (stereo not drawn)
103.7	CCOC(=O)C1=C(N)n2c(s/c(=C\c3cccnc3)c2=O)=C(C#N)C1c1cccnc1 (stereo not drawn)
107.9	CCc1ccc(NC(=O)Nc2c(-c3ccccc3)[nH]c3ccccc23)cc1
102.5	COc1ccc(NC(=O)CC2CCN(S(=O)(=O)c3ccc4c(c3)oc(=O)n4C)CC2)c(OC)c1
110.8	Cn1c(=O)cc2c3c(c(Br)ccc31)C(=O)c1ccccc1-2
104.0	O=C(CCn1c(=O)c2ccccc2n2c(SCC(=O)NC3CCCC3)nnc12)NC1CCCCC1
104.7	Cc1ccc2nc(-c3ccccc3NC(=O)Cc3ccccc3)ccc2c1

# Of the compounds above, these contain a cyano group:
GIV-Gai inh	compound
153.7	CC(C)c1ccc([C@H]2[C@@H]3CCCC=C3C(C#N)=C(N)C2(C#N)C#N)cc1
103.7	CCOC(=O)C1=C(N)n2c(s/c(=C\c3cccnc3)c2=O)=C(C#N)C1c1cccnc1 (stereo not drawn)

# Pulled by compound from the list above, five records:
GIV-Gai inh	compound
103.6	CCOC(=O)c1ccc(-n2c(=S)sc3c2nc(SCC(=O)Nc2cccc(OC)c2)n2c4ccccc4nc32)cc1
112.0	Cc1ccc(-c2noc(Cn3cnc4c(cnn4-c4ccccc4)c3=O)n2)cc1
110.8	Cn1c(=O)cc2c3c(c(Br)ccc31)C(=O)c1ccccc1-2
106.7	COc1ccc(C(=O)Nc2sc3c(c2-c2nc4ccccc4s2)CCCC3)cc1OC
107.2	CCOC(=O)N1CCN(C(=O)c2c[nH]c3ccc(S(=O)(=O)N(C)c4ccc(Br)cc4)cc3c2=O)CC1

# Next part.
GIV-Gai inh	compound
102.3	CC1(O)N(CCC#N)C(=O)OC12CCCCC2 (stereo not drawn)
98.7	C=CCOc1ccc(C(c2c(C)n(C)n(-c3ccccc3)c2=O)c2c(C)n(C)n(-c3ccccc3)c2=O)cc1
104.9	COc1cc(NC(=O)c2sc3nc(C)nc(N4CCN(C)CC4)c3c2C)cc(OC)c1
108.0	COC(=O)c1c(-c2ccc(Cl)cc2)noc1NC(C)C
101.4	Cc1ccc(N2CC(O)(c3ccc(Cl)cc3)[N+]3=C2SCCC3)cc1 (stereo not drawn)
107.1	CCOC(=O)C1=C(N)n2c(s/c(=C\c3ccccc3I)c2=O)=C(C#N)C1c1ccccc1I (stereo not drawn)
116.4	COC(=O)Nc1nc2cc(Oc3ccc4ccccc4c3Cl)c(Cl)cc2[nH]1
113.3	CCOC(=O)c1sc2nc(SCC#N)n(CCc3ccc(OC)c(OC)c3)c(=O)c2c1C
108.2	Fc1ccc2[nH]c3nc4cc(Cl)c(Cl)cc4nc3c2c1
109.3	CN(C)c1ccc(C2C3C(=O)N(Cc4ccccc4)C(=O)C3ON2c2ccccc2)cc1 (stereo not drawn)
111.3	O=S(=O)(Oc1ccccc1)c1ccc2c(c1)Cc1cc(S(=O)(=O)Oc3ccccc3)ccc1-2
101.2	CCc1onc(C)c1C1CCCN1Cc1ccccc1O (stereo not drawn)
101.4	Cn1nc(-c2nc(-c3ccccc3)no2)c2c1CCN(S(=O)(=O)c1ccc3c(c1)OCCO3)C2
113.7	O=C(Nc1ccc(Oc2ccc(Br)c3ccccc23)c(Cl)c1)c1cc(Cl)ccc1O
114.4	COc1ccc(C2CC(=O)NC(SCC(=O)Nc3ccccc3C)=C2C#N)cc1OC (stereo not drawn)
103.4	CC1CCN(S(=O)(=O)c2cc(-c3nnc(C4CCC4)o3)co2)CC1
108.0	COCC(C)NC(=O)CSc1nnc(-c2cc3ccccc3o2)n1C (stereo not drawn)
134.3	CCOc1ccc(NC(=O)Cn2c(=O)n(-c3ccccc3)c(=O)c3sc(SCC)nc32)cc1
102.0	O=C(Nc1ccc2c(c1)OCCO2)C1CCN(c2ncc(-c3ccccc3)cn2)CC1
101.3	COc1ccc(N2CCN(c3nccc4ccc(C(=O)Nc5cc(Cl)ccc5C)cc34)CC2)cc1
97.9	C=CCNC(=O)CSc1nnc2c3ccccc3nc(-c3ccccc3)n12
108.1	COc1cc(OC)cc(C(=O)Nc2cc(C(=O)N3CC(C)CC(C)C3)ccc2N2CC3CC(C2)c2cccc(=O)n2C3)c1 (stereo not drawn)
103.3	CCCCCCNC(=O)C1CCCN(c2ncc(-c3ccc(F)cc3)cn2)C1 (stereo not drawn)
100.5	O=C(COc1ccc(F)cc1)N1CCN(c2ncnc3c2nnn3-c2ccc(Cl)cc2)CC1
102.4	COc1cc(C2C(C(=O)OCC3CCCO3)=C(C)NC3=C2C(=O)CC(c2cccs2)C3)cc(OC)c1OC (stereo not drawn)
105.5	O=C(O)c1ccc(-c2nc(-c3ccc4c(c3)C(=O)c3cc([N+](=O)[O-])ccc3-4)c(-c3ccccc3)[nH]2)cc1
106.9	Cc1nc(SCc2noc(CCC(=O)Nc3ccc(F)cc3F)n2)n[nH]1
102.7	COc1ccc2c(c1)NC1(CCN(C(=O)Nc3ccc(Br)cc3F)CC1)c1cccn1-2
106.5	Cc1nc(CN2C(=O)COc3ccc(S(=O)(=O)N4CCCCC4)cc32)no1
101.9	CCOC(=O)c1sc(NC(=O)C2(c3ccc(C)cc3)CCCC2)c(C#N)c1C
105.8	O=C(Nc1ccc(N2CCN(c3ccccc3Cl)CC2)c(C(=O)O)c1)c1ccccc1
103.1	CCOC(=O)c1ccc(-n2c(=S)sc3c2nc(SCC(=O)O)n2c4ccccc4nc32)cc1
102.6	N#Cc1cc2c(nc1SCCS(=O)(=O)Cc1ccccc1)CCCC2
99.8	CCOC(=O)c1c(CN(C)c2ccccc2)oc2cc(Br)c(O)c(CN(C)C)c12
109.7	COc1ccc(/C=C2N=C(/C=C/c3cccc(Cl)c3Cl)OC\2=O)cc1OC(C)=O
101.6	CC(=O)Nc1ccc2nc(N3CCC(C(=O)Nc4nccs4)CC3)cc(C)c2c1
102.1	O=S(=O)(c1ccc2c(c1)OCCO2)N1CCCN(c2nc3cccnc3s2)CC1
125.3	COc1ccc(-c2[nH]ncc2CN2CCCC2c2cc(C(C)C)on2)cc1OC (stereo not drawn)
102.6	COc1ccc(NC(=O)C2OC3OC4(CCCCC4)OC3C3OC4(CCCCC4)OC23)cc1Cl (stereo not drawn)
102.3	Cc1ccc(-c2ccc3nn(Cc4nc(-c5ccc(Br)cc5)no4)c(=O)n3n2)cc1
109.1	COc1cccc(-c2nc(SCc3cc(=O)c4cc(F)ccc4[nH]3)n[nH]2)c1
110.1	CCN1CCN(C(=O)c2ccc(N3CC4CC(C3)c3cccc(=O)n3C4)c(NC(=O)c3cc(OC)cc(OC)c3)c2)CC1 (stereo not drawn)
105.4	Cn1c(SCC(=O)Nc2ccc3c(c2)OCO3)nc2cc(-c3ccccc3)sc2c1=O
109.4	COc1ccc(OC)c(C(=O)CN2C3=NCCCN3c3ccccc32)c1
105.7	Cc1nn(-c2nc3ccccc3o2)c2c1C(c1cccc(Br)c1)CC(=O)N2 (stereo not drawn)
109.7	COc1ccc(C2C3=C(CC(C)(C)CC3=O)Nc3ccc4ccccc4c32)cc1 (stereo not drawn)
100.0	Cc1ccc2nc(-n3nc(C)c4c3NC(=O)CC4c3ccsc3)sc2c1 (stereo not drawn)
115.1	O=C(CSc1nc2ccccc2c(=O)n1CCCN1CCN(c2cccc(Cl)c2)CC1)NCC1CCCO1 (stereo not drawn)
105.1	CC(=O)SC1CC2=CC(=O)CCC2(C)C2CCC3(C)C(CCC34CCC(=O)O4)C12 (stereo not drawn)
105.8	COCCn1c(SCC(=O)OC)nc2c(-c3ccccc3)cn(C)c2c1=O

# Continued:
GIV-Gai inh	compound
116.2	Cc1cc(N2C(=O)CSC23C(=O)Nc2ccccc23)ccc1Br (stereo not drawn)
110.0	O=[N+]([O-])c1ccc(Nc2nc(OCC(F)(F)F)nc(OCC(F)(F)F)n2)cc1
98.1	Cc1c(CN2CCC3(CC2)OCCO3)nnn1-c1ccccc1
93.6	Cn1c(=O)cc2c3c(c(Nc4cccc(C(F)(F)F)c4)ccc31)C(=O)c1ccccc1-2
113.4	O=C(c1ccc(Cl)cc1)N1CCc2c([nH]c3ccccc23)C1c1ccccc1 (stereo not drawn)
114.9	CCc1onc(C)c1C1CCCN1Cc1cn[nH]c1-c1ccc(C)c(C)c1 (stereo not drawn)
100.7	Cc1ccc2c(c1)c(=O)c1c(n2C)CCN(CC(=O)Nc2ccccc2)C1
104.7	O=C(NCC1CCCO1)C1CCN(S(=O)(=O)c2ccc(-c3noc(C4CC4)n3)cc2)CC1 (stereo not drawn)
109.1	O=C(Nc1cc(F)cc(F)c1)Nc1nc(-c2ccc(Cl)c(Cl)c2)cn1/N=C/c1ccccc1
98.3	Cn1c(SCC(=O)N2CCCCC2)nc2cc(-c3ccccc3)sc2c1=O
102.0	CCc1nc(-c2cc(S(=O)(=O)Nc3cc(F)ccc3Cl)c(C)s2)cs1

# The list is partial. The share of hits here may be higher or lower than overall.
